TsaE inh – displaces an ADP probe from E. coli YjeE (TsaE); P0AF67; purified YjeE, fluorescence polarisation of a bound ADP probe; Potency, µM; 71,000 compounds, 0.05% hits; AID 605; active = well fitted falling curve; inconclusive = weaker or top-dose-only fall, or a rising curve; inactive = flat or poorly fitted curve;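 also: top concentration of the series not given in the record; excess ADP was the control for the full effect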
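Purified YjeE (10 uM) with BODIPY Texas Red-labeled ADP probe (2 uM); compounds pin-transferred, 15 min at room temperature. Binding inhibition read as decreased fluorescence polarization; ADP titration as control.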
Bst PK mod – alters activity of Bacillus stearothermophilus pyruvate kinase. Potency, µM. partly purified Bacillus stearothermophilus pyruvate kinase, luminescence ATP production; ribose 5-phosphate activator present at AC10. 51,000 compounds, 1.2% hits; in the data active means potency below about 11 µM; inconclusive means mostly about 12 µM to 25 µM; inactive means weaker than that;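 the screen sought inhibitors and activators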;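 also: potency is read from the fitted curve at half-maximal effect; scaled between full activation by ribose 5 phosphate and full inhibition by luteolin; about four in five hits inhibit and the cells do not say which; series up to 57 µM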
Numbers without * were called inactive; i = inactive; u = inconclusive; x = not tested or not shown.

TsaE inh	Bst PK mod	molecule
i	>57	CCOc1ccc(CCNC(=O)C2CCCN(c3nn4c(=O)cc(C)nc4s3)C2)cc1 (stereo not drawn)
i	>57	O=C(Nc1ncnc2sc3c(c12)CCCCC3)c1ccco1
i	>57	CCOc1cc(C)c(C(C)C)cc1S(=O)(=O)n1ccc(C)n1
i	x	COC(=O)c1c(F)c(F)c(N2CCOCC2)c(F)c1F
i	x	O=c1c(-c2cc(F)cc(F)c2)nc2cnc(Nc3ccccc3)nc2n1C[C@H]1CCCO1
i	x	C=CCc1ccc(OC)c(OC)c1
i	>57	COC(=O)c1ccc(COc2ccc(C3C4=C(CCCC4=O)Nc4onc(C)c43)cc2)cc1 (stereo not drawn)
i	x	COc1cc(OC)cc(C(=O)Nc2ccccc2NC(C)=O)c1
i	>57	CC1(C)CC(=O)C2=C(C1)NC(=O)CC2c1cc2c(cc1Br)OCO2 (stereo not drawn)
i	x	O=C(CSc1ccc2nnc(-c3cccnc3)n2n1)NCC1CCCO1 (stereo not drawn)
i	x	CCN(CC(=O)NCc1ccccn1)S(=O)(=O)c1ccc(Cl)cc1
x	>26	O=C(Oc1oc(-c2ccco2)nc1C=Nc1ccccc1)c1ccco1
i	i	CC1CCCC(NC(=O)CSc2nnc(N)s2)C1C (stereo not drawn)
i	x	CC(=O)C1=C(C)NC(SCC(=O)c2ccccc2)=C(C#N)C1c1ccco1 (stereo not drawn)
i	>57	O=C(Nc1ccc(F)cc1)N(Cc1nnc2n1CCCCC2)c1ccccc1

Continued (three carried over from the part before).
TsaE inh	Bst PK mod	molecule
i	i	CC1CCCC(NC(=O)CSc2nnc(N)s2)C1C (stereo not drawn)
i	x	CC(=O)C1=C(C)NC(SCC(=O)c2ccccc2)=C(C#N)C1c1ccco1 (stereo not drawn)
i	>57	O=C(Nc1ccc(F)cc1)N(Cc1nnc2n1CCCCC2)c1ccccc1
i	>57	CC1CCCCC1NC(=O)CSc1nnc(N)s1 (stereo not drawn)
i	>57	O=C(NCC1CCCO1)C1CCCN(c2ncccn2)C1 (stereo not drawn)
i	u	O=C(c1ccco1)n1c(=S)nc2ccccn21
i	x	CC(=O)Nc1ccc(C2Nc3ccccc3C(=O)N2C2CCCCC2)cc1 (stereo not drawn)
x	>26	Clc1cccc(-c2nn3c(COc4ccccc4)nnc3s2)c1
i	x	COC(=O)[C@@]1(Cc2ccccc2)[C@H]2c3cc(C(=O)N4CCCC4)n(CC4CC4)c3C[C@H]2CN1C(=O)c1ccccc1
i	>57	CC(=O)NC12CC3CC(C1)CC(C(=O)OCC(=O)Nc1ncc(Cl)cc1Cl)(C3)C2
i	>57	COc1ccc(C2=NOC(C(=O)NCc3ccc(F)cc3)C2)cc1 (stereo not drawn)
i	x	CCOC(=O)C1CCN(S(=O)(=O)c2c(C)n(C)c(=O)n(C)c2=O)CC1
i	x	CN(C)CCN(Cc1ccc(Cl)cc1)c1ccccn1
i	>11	O=C(CSc1cccc2cccnc12)N1CCCC1
i	>57	Cc1cccc(NC(=O)CN2C(=O)COc3ccc(Cl)cc32)c1
i	x	CCOc1ccc2c(c1)c1nnc(SCC3CCCO3)nc1n2C (stereo not drawn)
i	x	Cn1cccc1Cc1nnc(SCC(=O)NCc2ccccc2Cl)n1-c1ccc(F)cc1
i	>11	Cc1ccc2nc(Cc3ccc(N)cc3)oc2c1
i	x	CO[C@H]1C[C@@H](O[C@@H]2[C@H](C)[C@H](O[C@@H]3O[C@@H](C)C[C@@H](N(C)C)[C@@H]3O)[C@H](C)C[C@]3(CO3)C(=O)[C@H](C)[C@H](O)[C@H](C)[C@H](C)OC(=O)[C@@H]2C)O[C@@H](C)[C@H]1O
i	>57	Cc1ccc(C)c(C(=O)CSc2nnnn2-c2cccnc2)c1
i	x	CCOc1ccc(-c2cc(NC(=O)Cn3ncc4c3-c3ccccc3OC4)on2)cc1OCC
i	>57	COC(=O)c1[nH]c2ccccc2c1NC(=O)CN1CCCCCC1
i	>57	CN(C)c1nc2ccccc2c(N)c1-c1ccccc1
x	>26	COC(=O)c1ccc(C2NC(C(=O)O)CS2)cc1 (stereo not drawn)
i	i	Cc1cc(SCC(=O)N2CCCC2)nc2ccccc12
i	>57	COCCN(CC(=O)NC1CCCCC1)C(=O)CSc1nc2ccccc2o1
i	x	CCOC(=O)N1CCN(c2c(NCC3CCN(Cc4cccc(C)c4)CC3)c(=O)c2=O)CC1
i	>57	CC1CN(c2nc3ccccc3nc2C(C#N)C(=O)NC2CCCCC2)CC(C)O1 (stereo not drawn)
i	>57	COc1ccc(-n2nnnc2Sc2ccc(S(=O)(=O)N3CCOCC3)cn2)cc1
i	x	CC(Oc1ccc(Cl)cc1Cl)C(=O)Nc1ncccn1 (stereo not drawn)
i	x	O=C(O)CCC/C=C\C[C@@H]1CO[C@H](C(F)(F)F)O[C@@H]1c1ccccc1O
i	>57	CC1(C)CC(CC(=O)Nc2ccccn2)C(=O)O1 (stereo not drawn)
i	>57	O=C(Nc1ncccn1)c1cccs1

Gathered by group, the compounds so far with an aryl thioether with sulfur outside any ring.
TsaE inh	Bst PK mod	molecule
i	x	O=C(CSc1ccc2nnc(-c3cccnc3)n2n1)NCC1CCCO1 (stereo not drawn)
i	i	CC1CCCC(NC(=O)CSc2nnc(N)s2)C1C (stereo not drawn)
i	>57	CC1CCCCC1NC(=O)CSc1nnc(N)s1 (stereo not drawn)
i	>11	O=C(CSc1cccc2cccnc12)N1CCCC1
i	x	CCOc1ccc2c(c1)c1nnc(SCC3CCCO3)nc1n2C (stereo not drawn)
i	x	Cn1cccc1Cc1nnc(SCC(=O)NCc2ccccc2Cl)n1-c1ccc(F)cc1
i	>57	Cc1ccc(C)c(C(=O)CSc2nnnn2-c2cccnc2)c1
i	i	Cc1cc(SCC(=O)N2CCCC2)nc2ccccc12
i	>57	COCCN(CC(=O)NC1CCCCC1)C(=O)CSc1nc2ccccc2o1
i	>57	COc1ccc(-n2nnnc2Sc2ccc(S(=O)(=O)N3CCOCC3)cn2)cc1

Later entries
TsaE inh	Bst PK mod	molecule
i	x	CCOC(=O)c1ccc(NC(=O)c2cccc(S(=O)(=O)N3CCOCC3)c2)cc1
i	>11	Cc1ccc(-c2noc(-c3ccccc3C(=O)N3CCN(C)CC3)n2)cc1
i	>57	Cc1cc(NC(=O)CSc2nc3ccccc3c(=O)n2Cc2ccccc2)no1
i	x	CCNc1nc(OCCNS(=O)(=O)c2cc(C)ccc2C)nc(N(C)C)n1
u	x	COCCNc1nc(-c2cccc(NS(C)(=O)=O)c2)nc2ccccc12
i	>57	O=C(CCc1nc(-c2ccccc2F)no1)NCCN1CCc2ccccc2C1
i	x	O=C(Nc1ccc2nn(-c3ccccc3)nc2c1)c1cccnc1
i	u	CCN(CC)CCCNC(=O)c1sc2nc(-c3ccc(F)cc3)cn2c1C
i	>57	Cc1ccnc(SCCn2c(Br)nc3c2c(=O)[nH]c(=O)n3C)n1
i	>57	CC(=NCc1ccc2c(c1)OCO2)C1=C(O)c2ccccc2C1=O
i	>57	CC(C)CC(c1nnnn1C1CCCC1)N1CCN(c2ccccc2F)CC1 (stereo not drawn)
i	x	O=c1c(CCc2ccccc2)nc2cncnc2n1Cc1ccccc1
i	x	COC(=O)CNC(=O)C1(C)C=CC2(CCCCC2)N1C(C)=O (stereo not drawn)
i	>57	Cc1csc(NC(=O)C2CCC(C)(C(=O)O)C2(C)C)n1 (stereo not drawn)
i	>57	CCC(=O)c1ccc(OCC(=O)N2CCc3cc(OC)c(OC)cc3C2)cc1
i	>57	CCOc1ccc(C2C(C(=O)c3ccco3)=C(O)C(=O)N2Cc2cccnc2)cc1OC (stereo not drawn)
i	>57	O=C(CSc1nc2ccccc2c(=O)n1CCCO)NCc1ccccc1
i	>57	CC1(C)Cc2ccccc2C2CC(O)C(=O)N21 (stereo not drawn)
i	>57	COc1cc2c(cc1OC)CN(C(=O)CSc1nnc(C)s1)CC2
i	x	CCC1CCCCN1Cc1ccc(OC)c(OC)c1 (stereo not drawn)
i	>57	O=C(CSc1nncs1)NC(=O)NCc1ccccc1
i	x	Nc1nc(-c2cccc([N+](=O)[O-])c2)cc(-c2cc(-c3cccc([N+](=O)[O-])c3)nc(N)n2)n1
i	x	CN(C)c1ccc(-c2nc(NCc3cccnc3)c3ccccc3n2)cc1
i	x	CC(Cc1ccccc1)C(=O)NCC1CC1 (stereo not drawn)
i	x	O=C(c1cc(C(F)(F)F)cc(C(F)(F)F)c1)N1CCC2(CCCN(c3ccccn3)C2)CC1
i	>57	CCC(c1nnnn1C(C)(C)CC)N(CCCO)Cc1cc2cccc(C)c2[nH]c1=O (stereo not drawn)
i	x	Cc1noc(C)c1-c1ccc2ncnc(Nc3ccc(F)cc3)c2c1
i	>57	C=CCn1c(SCn2nnc3ccccc3c2=O)nnc1-c1ccc(F)cc1
i	>57	COc1cnn(-c2ccccc2)c(=O)c1N(C)C
i	>57	O=C(CCc1ccccc1)NCCCN1CCOCC1
i	>57	O=C(COC(=O)C1COc2ccccc2O1)NC1CCS(=O)(=O)C1 (stereo not drawn)
i	>11	CCOc1ccccc1Nc1ncnc2ccccc12
i	>57	O=C(CS(=O)(=O)Cc1ccccc1)Nc1cccnc1
i	x	Cc1nn(Cc2ccccc2)c2c1C(c1ccncc1)C(C#N)=C(N)O2 (stereo not drawn)
i	x	CCCc1nc2sc3c(c2c(=O)n1N)CCC3
i	x	COc1cccc(Cn2c(=O)c(-c3cccs3)nc3cnc(N4CCNCC4)nc32)c1
i	>57	O=C(O)c1ccccc1C(=O)NCc1cccnc1
i	>57	Cn1c(Cc2cccs2)nnc1SCc1nc2ccccc2[nH]1
i	4.4*	c1ccc(CN2CCN(c3nc(-c4ccccc4)nc(-n4ccnc4)n3)CC2)cc1
i	x	O=C1CSC(=O)N1CC(O)COc1ccc(Cl)cc1 (stereo not drawn)
i	>57	COC(=O)c1c(C(=O)OC)c(C)n(Cc2cccnc2)c1C
i	>57	COc1ccc(C2CCN(Cc3cccnc3)CC2O)cc1 (stereo not drawn)
i	>57	CC(=O)N1CCN(c2ccc(N=Cc3c(O)n(Cc4ccccc4)c(=O)[nH]c3=O)cc2)CC1
i	>57	CC1=C(C(=O)Nc2ccc(F)cc2)C(c2ccc(C)o2)C2=C(CC(C)(C)CC2=O)N1 (stereo not drawn)
i	>57	COc1ccccc1CCNC(=O)c1ccoc1C
i	>57	COc1ccc(CCNc2oc(-c3ccco3)nc2C#N)cc1
i	>57	Cc1ccccc1OCc1nnc(SCC(=O)NCc2ccccc2)n1C
i	>57	O=C1CC(CCC(=O)NC2CC2)c2ccccc2N1 (stereo not drawn)
i	u	Cc1cc2n(n1)C(c1ccc(N(C)C)cc1)Nc1ccccc1-2 (stereo not drawn)
i	>57	Cc1cccc(C)c1NC(=O)N1CC=C(n2c(=O)[nH]c3ccccc32)CC1
i	x	O=C(c1ccco1)N1CCC2(CCN(Cc3cc(C(F)(F)F)cc(C(F)(F)F)c3)CC2)CC1
i	>57	O=C(COc1ccc2c(c1)C(=O)CC1(CCCCC1)O2)NCc1ccccn1
i	x	O=C(Nc1ccc(N2CCCCC2)cc1)c1cncc(Br)c1
x	>26	Cc1ccc(N(CC(=O)O)C2SC(=O)NC2=O)cc1 (stereo not drawn)
i	x	Cc1nc2ccccc2c2oc(C(=O)NC3CC3)cc12
i	>57	CCOC(=O)c1oc2ccccc2c1NC(=O)CN1CCN(C)CC1
i	x	COC(=O)c1ccc(C(NC(=O)OCc2ccccc2)/C(=C/[C@@H](C)C(=O)Nc2ccc(OC)cc2)c2cccnc2)cc1 (stereo partly drawn)
x	>26	CCOC(=O)C1=C(C)NC(C)=C(C(=O)OC)C1c1cccc(Cl)c1Cl (stereo not drawn)
i	>57	O=C1Cc2ccccc2N1c1ccccc1
i	>57	CCc1ccccc1NC(=O)c1ccc(F)c(S(=O)(=O)N2CCC(C(N)=O)CC2)c1

Next part
TsaE inh	Bst PK mod	molecule
i	x	O=C(/C=N/O)NCCCN1CCCCCC1
x	>26	Cc1nc2n[nH]c(N)c2c2c1COC(C)(C)C2
i	>57	COc1ccccc1N(CC(=O)NC1CCCCC1)C(=O)CCC(=O)Nc1ccccn1
i	>57	Cc1cc(N2CCCC2)nc(-c2ccccc2O)n1
i	>57	CCCn1nc(C(=O)Nc2cc(C(=O)OC)ccc2C)c2ccccc2c1=O
i	>11	Cc1noc(N)c1C(=O)Nc1ccc(F)cc1
i	x	Cn1c(=O)[nH]c(=O)c2c1nc(CN1CCN(c3cccc(Cl)c3)CC1)n2Cc1ccccc1Cl
i	>57	CN(C)CCCNCCCNC(=O)c1ccco1
i	>57	Cc1cc(=O)oc2cc(OCC(O)CN3CCc4ccccc4C3)ccc12 (stereo not drawn)
i	x	Cc1cc(C)n2nc(S(=O)(=O)N(C)c3ccccc3)nc2n1
i	>57	COc1ccc(CNC(=O)c2cc(-c3ccccc3O)n[nH]2)cc1
i	>57	O=C(c1ccc(-n2cnnn2)cc1)N1CCN(C(c2ccccc2)c2ccccc2)CC1
i	x	CCOC(=O)C1CCN(Cc2ccc(F)c(Br)c2)CC1
x	>26	CCCCOc1ccc(C)cc1CN(CCO)CCO
i	>57	CNS(=O)(=O)c1cc(OCC(N)=O)c(C)cc1Cl
i	>57	C=CCn1c(SCC(=O)Nc2ccccc2CC)nnc1-c1ccncc1
i	>57	O=C(CN1C(=O)c2ccccc2C1=O)N1CCN(c2ccccn2)CC1

Bioassay records (PubChem)

Some of the compounds tested; rates above refer to the full screens.
